quorum sensing = Vibrio cholerae quorum sensing activators, luminescence (AID 686977) | V. cholerae quorum sensing reporter, luminescence, 6 h; higher luminescence means a stronger effect; most inactives read 0 | luminescence at 50 µM unless noted; hits with a dose series show EC50 in µM | 9,400 tested, under 10 active;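 active = light above mean plus 3 SD and confirmed in a dose series; inconclusive = above that limit without a clear retest; inactive = below it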;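 note: raw light counts without normalisation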
Active calls of the source: *; u = inconclusive; [ ] = another dose, or the depositor's remark.

CC(C)(C)SCCNC(=O)CN1C(=O)c2ccccc2S1(=O)=O
  quorum sensing = 0

Cc1ccccc1-c1nc(CS(=O)(=O)CC(=O)NCCCN2CCCC2)c(C)o1
  quorum sensing = 0

Cn1c(=O)c2c(nc(SCC(=O)O)n2Cc2cccc(C(F)(F)F)c2)n(C)c1=O
  quorum sensing = 0

O=c1cc(N2CCN(Cc3ccccc3)CC2)[nH]c(=O)n1-c1ccc(Br)cc1
  quorum sensing = 0

COc1ccc(CNC(=O)C2CCCN(S(=O)(=O)c3c(C)n[nH]c3C)C2)cc1 (stereo not drawn)
  quorum sensing = 0

CCOC(=O)c1[nH]c(C)c(C(=O)NCCCN2CCOCC2)c1C
  quorum sensing = u

Cc1ccc(-c2cc(C(F)F)n3ncc(C(=O)N4CCN(c5ccccn5)CC4)c3n2)cc1
  quorum sensing = 240

CCOc1ccc(Cn2nnc(C(=O)Nc3ccc(OC)cc3OC)c2N)cc1
  quorum sensing = 40

O=C(Cn1cnc2c(nnn2-c2ccccc2)c1=O)N1CCOCC1
  quorum sensing = 0

Cc1ccc(C2CC(c3ccco3)n3ncnc3N2)cc1 (stereo not drawn)
  quorum sensing = 80

C[C@]12CC[C@H](O)C[C@@H]1CC[C@@H]1[C@@H]2CC[C@]2(C)C(=O)CC[C@@H]12
  quorum sensing = 1000[10 µg/mL]

CCN1CCN(CC(=O)Nc2ccccc2)C(=O)C1=O
  quorum sensing = 40

COc1cc2c(cc1NC(=O)CSc1nc3ccccc3[nH]1)oc1ccccc12
  quorum sensing = 0

CCN(CCNC(=O)Cn1c(=O)sc2ccccc21)c1ccccc1
  quorum sensing = 0

CCOn1c(=O)c(=O)n(OCc2ccccc2)c2ccccc21
  quorum sensing = 40

COc1ccc(Cn2cc3c(-c4ccc(F)cc4)nnc-3c3cc(OC)c(OC)cc32)cc1
  quorum sensing = 0

CCN(CC)CCOCCOc1cc(C)c(Cl)c(C)c1
  quorum sensing = 240

CC1Cn2c(nnc2-c2cccc(N)c2)S1 (stereo not drawn)
  quorum sensing = 0

COC(=O)CNc1nc(-c2cccnc2)nc2ccccc12
  quorum sensing = 0

Cc1noc(/C=C/N(C)C)c1S(=O)(=O)N1CCCC(C(=O)NCc2cccs2)C1 (stereo not drawn)
  quorum sensing = 280

CC1(C)CC(c2csc(N)n2)CCO1 (stereo not drawn)
  quorum sensing = 0

Cc1nn(-c2ccc(F)cc2)c2c1cc(C#N)c1nc3ccccc3n12
  quorum sensing = 240

COC(=O)c1ccc(COc2ccc3c(C)c(C)c(=O)oc3c2)o1
  quorum sensing = 0

CC(C)Oc1ccc(C(=O)NC2(C(F)(F)F)N=C3SCCN3C2=O)cc1 (stereo not drawn)
  quorum sensing = 40

COCCn1c(SCC(N)=O)nc2c(c1=O)SC(C)C2 (stereo not drawn)
  quorum sensing = 40

The closing five entries of the section above lead into the next.
molecule | quorum sensing
CC1(C)CC(c2csc(N)n2)CCO1 (stereo not drawn) | 0
Cc1nn(-c2ccc(F)cc2)c2c1cc(C#N)c1nc3ccccc3n12 | 240
COC(=O)c1ccc(COc2ccc3c(C)c(C)c(=O)oc3c2)o1 | 0
CC(C)Oc1ccc(C(=O)NC2(C(F)(F)F)N=C3SCCN3C2=O)cc1 (stereo not drawn) | 40
COCCn1c(SCC(N)=O)nc2c(c1=O)SC(C)C2 (stereo not drawn) | 40
Cc1ccc(S(=O)(=O)N2CCN(C(=O)Cc3ccccc3)CC2)cc1 | 40
CCCc1cc(C(=O)NC2CCCCC2)no1 | 280
Cc1ccc(Cl)cc1N1CCN(C(=O)COc2ccc(S(=O)(=O)NC(C)C)cc2)CC1 | 0
CC(=O)c1oc2ccccc2c1NC(=O)CCCN1C(=O)c2ccccc2C1=O | 40
COc1ccc(CNc2ccc(-c3ccccc3OC)nn2)cc1 | 0

Structures above with a halogen:
molecule | quorum sensing
Cn1c(=O)c2c(nc(SCC(=O)O)n2Cc2cccc(C(F)(F)F)c2)n(C)c1=O | 0
O=c1cc(N2CCN(Cc3ccccc3)CC2)[nH]c(=O)n1-c1ccc(Br)cc1 | 0
Cc1ccc(-c2cc(C(F)F)n3ncc(C(=O)N4CCN(c5ccccn5)CC4)c3n2)cc1 | 240
COc1ccc(Cn2cc3c(-c4ccc(F)cc4)nnc-3c3cc(OC)c(OC)cc32)cc1 | 0
CCN(CC)CCOCCOc1cc(C)c(Cl)c(C)c1 | 240
Cc1nn(-c2ccc(F)cc2)c2c1cc(C#N)c1nc3ccccc3n12 | 240
CC(C)Oc1ccc(C(=O)NC2(C(F)(F)F)N=C3SCCN3C2=O)cc1 (stereo not drawn) | 40
Cc1ccc(Cl)cc1N1CCN(C(=O)COc2ccc(S(=O)(=O)NC(C)C)cc2)CC1 | 0

These rows are one share of the data. The share of hits here may be higher or lower than overall.
